# Source: PubChem (Johns Hopkins Ion Channel Center)
# KCNQ2 inh – KCNQ2 channel blockers in CHO-K1 cells – cell-based, FluxOR thallium flux, B-score, primary screen (AID 2156); O88943; 20 min; hits give low values; only compounds with negative scores are shown here; some inactives read as strong as hits; B-score at 10 µM; 310,000 tested, 1.1% active;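 active = fluorescence ratio B-score at most minus 3 library SDs, with starting brightness B-score within 2 library SDs, cut at about -5.5 in these data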
# Target sequence (O88943 whole entry, looked up): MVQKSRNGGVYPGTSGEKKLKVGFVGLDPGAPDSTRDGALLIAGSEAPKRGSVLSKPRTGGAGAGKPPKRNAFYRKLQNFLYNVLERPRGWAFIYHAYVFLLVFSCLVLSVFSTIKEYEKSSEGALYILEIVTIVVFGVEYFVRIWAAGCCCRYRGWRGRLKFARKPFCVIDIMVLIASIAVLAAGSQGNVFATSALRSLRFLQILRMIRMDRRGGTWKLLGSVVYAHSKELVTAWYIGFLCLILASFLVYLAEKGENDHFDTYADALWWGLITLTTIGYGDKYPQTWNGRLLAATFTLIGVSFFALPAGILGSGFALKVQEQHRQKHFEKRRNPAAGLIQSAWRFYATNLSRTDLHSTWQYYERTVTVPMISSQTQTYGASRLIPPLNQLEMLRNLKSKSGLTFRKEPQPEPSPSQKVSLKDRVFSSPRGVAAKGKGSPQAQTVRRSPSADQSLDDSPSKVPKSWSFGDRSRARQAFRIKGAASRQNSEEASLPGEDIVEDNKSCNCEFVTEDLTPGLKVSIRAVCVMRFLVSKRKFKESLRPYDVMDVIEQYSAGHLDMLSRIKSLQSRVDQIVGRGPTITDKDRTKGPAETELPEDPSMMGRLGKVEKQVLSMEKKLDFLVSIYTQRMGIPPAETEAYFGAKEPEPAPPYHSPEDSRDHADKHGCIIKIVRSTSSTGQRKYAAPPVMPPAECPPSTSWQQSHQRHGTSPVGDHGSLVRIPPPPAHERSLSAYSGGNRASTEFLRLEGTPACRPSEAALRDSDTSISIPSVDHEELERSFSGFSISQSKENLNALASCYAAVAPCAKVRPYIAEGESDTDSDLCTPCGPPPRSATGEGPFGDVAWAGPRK
# KCNQ2 inh baseline – recorded beside KCNQ2 inh, whose call it bears; B-score; measured here: initial fluorescence intensity artifact check;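 brightness before thallium and not channel activity; 0 = typical well and far values either way flag optical interference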
# The depositor's hits bear a star; i = inactive. A portion of the library; the hit share may differ from the screen's.
# Each structure is followed by: KCNQ2 inh	KCNQ2 inh baseline
> COC(=O)c1cn(NC(=O)/C=C/c2cc(OC)ccc2OC)c(=O)c2ccccc12
  i	-1.3
> COc1ccc(C2c3[nH]c4ccccc4c3CCN2C(=O)Cc2nonc2C)c(F)c1 (configuration not stated)
  i	-0.4
> CCN(CC(=O)NC(=O)Nc1ccccc1F)Cc1ccccc1
  i	0.33
> Nc1cc(=O)[nH]c(SCC(=O)Nc2nc3ccc([N+](=O)[O-])cc3s2)n1
  i	-0.18
> CS(=O)(=O)c1ccc(C(=O)N(Cc2ccccc2)c2ccccc2)cc1
  i	3.7
> CC1Cc2cc(S(=O)(=O)CCC(=O)NC3CCCCC3)ccc2N1C(=O)C1CC1 (configuration not stated)
  i	-0.02
> Cc1nc2ccc(NC(=O)c3cnc(Cl)c(Cl)c3)cc2s1
  i	-2.6
> Cc1ccc(NC(=O)CN2C(=O)S/C(=C\c3cc(C)n(-c4ccc(C(=O)O)cc4)c3C)C2=O)cc1
  i	1.3
> COc1ccc(S(=O)(=O)NCCN2CCOCC2)cc1[N+](=O)[O-]
  i	-0.58
> CC(=O)Nc1ccc(S(=O)(=O)Nc2nc3ccccc3nc2-n2ccc(=NC(=O)c3ccccc3)cc2)cc1
  i	-1.2
> O=C(NCc1ccccc1Cl)c1ccc(CS(=O)(=O)c2ccccc2)o1
  i	-1.1
> Cc1nn(-c2ccc([N+](=O)[O-])cc2)c(N)c1-c1ccccc1
  i	-1.1
> N/C(=N/O)C(c1ccccc1)c1ccccc1
  i	-1.5
> CCOC(=O)C(=CNc1ncccc1C)C(=O)OCC
  i	0.37
> O=C1CC(=O)N(c2ccccc2)N1c1ccccc1
  i	-0.24
> COc1ccc(N2CCN(c3oc(-c4ccccc4OC)nc3C#N)CC2)cc1
  i	0.05
> COc1ccc2[nH]c(C)c(CCNc3ccc(C(F)(F)F)cc3[N+](=O)[O-])c2c1
  i	1.1
> ClCC1NCC(c2ccccc2Cl)c2c1[nH]c1ccccc21 (configuration not stated)
  i	-0.3
> CCC(N=c1cc(-c2ccc(OC)cc2)oc2ccc(C)cc12)C(=O)O (configuration not stated)
  i	-1.1
> CC(C)(C)c1ccc(C(=O)NCCNC(=O)c2ccco2)cc1
  i	1.7
> CCN(/C(N)=N/c1nc(C)cc(C)n1)c1ccccc1
  i	0.27
> Cc1ccc(NC(=O)Nc2ccc(Cl)cn2)cc1
  i	-0.87
> COCc1cnc(C)nc1N
  i	-2.3
> CCOc1ccc(CN(C)CC(=O)NCc2ccc(F)cc2)cc1
  i	0.25
> O=C(CSc1ccc2nnc(CCNC(=O)c3ccccc3)n2n1)NCc1ccc(F)cc1
  i	-3.2
> COc1ccc(NC(=O)CSc2nc3nc(C)cc(C)n3n2)cc1
  i	-0.52
> COc1ccc(NC(=O)CN(C)C(=O)/C=C/c2cn(-c3ccccc3)nc2-c2ccc(C)cc2)cc1
  i	3.6
> O=C(NN/C(=N/S(=O)(=O)c1ccc(Cl)cc1)c1ccccc1)c1cccc(Cl)c1
  i	-1.4
> Cc1c(C)c2cc(Cl)c(OCC(=O)NCCCn3ccnc3)cc2oc1=O
  i	3.5
> O=S(=O)(NCc1c(Cl)cccc1Oc1ccccc1)c1ccc(F)cc1
  i	-1.2
> CCOc1ccc(C(N)=O)cc1OC
  i	-0.2
> Nc1nc(CN2CCN(c3ccccn3)CC2)nc(Nc2ccc(F)cc2)n1
  i	1.2
> COc1ccc(N(Cc2ccccc2)C(=O)c2ccccc2[N+](=O)[O-])cc1
  i	-0.3
> COC(=O)C1=CN(c2ccc(F)cc2)C=C(C(=O)OC)C1c1ccc([N+](=O)[O-])cc1
  i	-0.91
> O=C(CCCN1C(=O)/C(=C\c2ccccc2)SC1=S)Nc1ccc(O)cc1
  i	-1.4
> N#CCSc1nc2scc(-c3cccs3)c2c(=O)n1CCc1ccccc1
  -7*	-1.9*
> Cc1ccc(CC2SC(=O)NC2=O)cc1Cl (configuration not stated)
  i	-0.05
> CCOc1ccc(-c2nnc3sc(COc4ccc(Cl)cc4)nn23)cc1
  i	0.13
> O=C(/C=C/c1ccccc1)Oc1cccc(C(=S)N2CCOCC2)c1
  i	1.1
> COc1ccc(S(=O)(=O)N2CCN(C(=S)Nc3ccc(S(N)(=O)=O)cc3)CC2)cc1
  i	1.2

# Other records.
structure	KCNQ2 inh	KCNQ2 inh baseline
COC(=O)c1oc2ccc(Cl)cc2c1-n1cccc1	i	1
O=C(NCc1ccco1)C1CC(c2ccc(F)cc2)=NO1 (configuration not stated)	i	2.8
O=C(NCCN1CCCC1)C(c1ccccc1)c1ccccc1	i	-0.32
COc1cc(OC)nc(NC(=O)COC(=O)c2cccc(Cl)c2)n1	i	-2.1
Cc1cn2c(-c3ccncc3)nnc2s1	i	1
CCn1cc(C(=O)NCCCOC(C)C)c(=O)c2cc(S(=O)(=O)N3CCC(C)CC3)ccc21	i	-1.3
COc1cc2c(cc1NC(=O)CSc1cccc[n+]1[O-])oc1ccccc12	i	0.25
O=C(NCCCN1CCCC1=O)C1CCCO1 (configuration not stated)	i	1.5
O=C(COc1ccc(F)cc1)Nc1nnc(S(=O)(=O)N2CCCC2)s1	i	0.02
CN(C)S(=O)(=O)N(CC(=O)Nc1ccc(S(=O)(=O)N2CCCC2)cc1)c1ccccc1	i	-0.19
OC(CCN1CCOCC1)c1ccccc1 (configuration not stated)	i	-1.2
CCc1ccc(S(=O)(=O)N2CCCC(N3CCN(c4ccc(OC)cc4)CC3)C2)cc1 (configuration not stated)	i	1.9
COCCNC(=O)Cn1cnc2sc(C)c(S(=O)(=O)N3CCN(c4ccccc4OC)CC3)c2c1=O	i	-0.9
CCN(CC)S(=O)(=O)c1ccc(N2CCOCC2)c(NC(=O)c2c3c(nc4ccccc24)CCC3)c1	i	0.22
CN(c1nc2ccccc2[nH]c1=O)C1CCCCC1	i	0.03
Cc1cc(C)c(C)c(S(=O)(=O)Nc2ccc(C(N)=O)cc2)c1C	i	0.2
COc1ccc(C(CNC(=O)c2ccc3c(c2)OCCO3)N(C)C)cc1 (configuration not stated)	i	0.11
Cc1oc2c(c(C)cc3oc(=O)c(CC(=O)NCC(=O)NCC(=O)NCC(C)O)c(C)c32)c1C (configuration not stated)	i	1.6
CCOc1cccc(NC(=O)C(Cc2cccs2)c2nn[nH]n2)c1 (configuration not stated)	i	-0.88
Cc1cccc(-n2ncc3c2CCCC3NC(=O)CCc2cccnc2)c1C (configuration not stated)	i	-0.05

# Pulled by structure from the entries so far:
structure	KCNQ2 inh	KCNQ2 inh baseline
CCN(CC)S(=O)(=O)c1ccc(N2CCOCC2)c(NC(=O)c2c3c(nc4ccccc24)CCC3)c1	i	0.22
O=C(NCCCN1CCCC1=O)C1CCCO1 (configuration not stated)	i	1.5
Cc1oc2c(c(C)cc3oc(=O)c(CC(=O)NCC(=O)NCC(=O)NCC(C)O)c(C)c32)c1C (configuration not stated)	i	1.6
Cc1cc(C)c(C)c(S(=O)(=O)Nc2ccc(C(N)=O)cc2)c1C	i	0.2
CCc1ccc(S(=O)(=O)N2CCCC(N3CCN(c4ccc(OC)cc4)CC3)C2)cc1 (configuration not stated)	i	1.9

# Following part.
structure	KCNQ2 inh	KCNQ2 inh baseline
COc1cc(/C=C/C(=O)OCC(=O)N2CCCc3ccccc32)ccc1OC(F)F	i	-1.1
COc1ccc(C(CNC(=O)COc2ccc(C)c(C)c2)N2CCCCC2)cc1 (configuration not stated)	i	-1.9
CCOC(=O)c1c(CSc2ccccc2)n(C)c2ccc(O)cc12	i	-0.21
COc1[nH]c(/N=C/c2ccccc2)c(C#N)c1C#N	i	2
CS(=O)(=O)Nc1ccc(S(=O)(=O)N2CCOCC2)cc1	i	0.34
COc1ccc(CNC(=O)C2CCCN(S(=O)(=O)c3c(C)nn(C)c3C)C2)cc1 (configuration not stated)	i	-0.73
Cc1ccc(-n2[nH]c(C)c(/C=N/NC(=O)c3ccc(O)cc3O)c2=O)cc1	i	-0.2
Cc1nc(C)c(-c2ccc(SCC(=O)Nc3ccc(F)cc3F)nn2)s1	i	0.21
O=C(C1CCCN(Cc2ccc(Cl)cc2)C1)N1CCCCC1 (configuration not stated)	i	0.21
Cc1cc(-c2ccc(S(=O)(=O)N3CCN(c4cccc(C)c4C)CC3)s2)on1	i	-1.1
CCOC(=O)c1[nH]c2ccccc2c1NC(=S)Nc1cccc(C)c1C	i	1.5
COc1ccc(CNC(=O)C/C(C)=N/NC(=O)COc2cccc(C)c2)cc1	i	0.13
CCOC(=O)c1cc(-c2ccccc2)n(CCC(=O)NC(C)CC)c1C (configuration not stated)	i	0.01
O=C(Nc1ccc(F)c(Cl)c1)C1CCN(c2ncnc3c2nc2n3CCCCC2)CC1	i	-1.2
Cc1cc(C)n(-c2ccc(C(=O)OCc3ccccc3)cc2)n1	i	-0.99
CCN(CC)c1ccc(/C=C/C(=O)c2ccc(Br)cc2)cc1	i	45
Cc1nc(NS(=O)(=O)c2ccccc2)sc1NC(=O)Nc1ccccc1	i	-0.71
COc1ccc(Cl)cc1C(=O)NCCCN1CCOCC1	i	1.5
Nc1c(-c2ccccc2)cnc2c(-c3ccccc3)cnn12	i	-1.1
OC(COCc1ccccc1F)CN1CCCCC1 (configuration not stated)	i	0.39
C/C(=C\c1ccco1)C1C(C#N)=C(N)OC2=C1C(=O)CC(C)(C)C2 (configuration not stated)	i	-1.5
Cc1ccc(C)c(Cn2cnc3c(oc4ccccc43)c2=O)c1	i	-1.2
Cc1ccc(S(=O)(=O)N(CC(=O)N2CCOCC2)c2ccc(C(C)C)cc2)cc1	i	-0.7
COc1cc(CNc2ncn[nH]2)ccc1OCc1ccccc1C	i	-0.28
COc1ccc(C2CC(c3ccccc3)n3nnnc3N2)cc1 (configuration not stated)	i	1.4
O=C(c1cc2ccc([N+](=O)[O-])cc2oc1=O)N1CCOCC1	i	2
CN1C(=O)C2(C(C#N)=C(N)N(c3cc(Cl)cc(Cl)c3)C3=C2C(=O)CC(C)(C)C3)c2ccccc21 (configuration not stated)	i	-1.3
O=C(CN1C(=O)c2ccccc2C1=O)N1CCN=C1c1ccccc1	i	0.05
Cc1ccc(-c2cc(C(=O)N/N=C/c3c[nH]c4ccccc34)n[nH]2)o1	i	3
C=CCn1c(SCc2c(C(=O)OC)sc(N)c2C(=O)OC)nnc1-c1ccc(Cl)cc1	i	-0.04
CCOC(=O)Cc1nnc(NCc2ccccc2)c2ccccc12	i	-0.18
OCCN(Cc1ccccc1)Cc1ccc(Cl)cc1Cl	i	0.43
O=C(NNC(=O)c1cc(-c2cccnc2)nc2ccccc12)Nc1ccc(Cl)cc1	-9.8*	0.47*
CCN(CC)S(=O)(=O)c1ccc(F)cc1	i	-0.06
CCCCOc1c(Br)cc(/C=N/O)cc1OCC	i	0.7
CSc1ccccc1C(=O)Nc1nc2ccccc2[nH]1	i	-1
CC(Oc1ccc(Cl)cc1)c1ccnn1S(=O)(=O)c1ccccc1 (configuration not stated)	i	-1.1
CCCOc1ccc(C(=O)NNC(=O)CCNC(=O)c2ccccc2Cl)cc1OC	i	-0.7
CCC(C)[C@H](NC(=O)NCCC1=CCCCC1)C(=O)OC (some centres not stated)	i	0.79
COC(=O)c1sccc1NC(=O)C1CCCCC1C(=O)O (configuration not stated)	i	-0.08

# Another view of part of the listing above:
CSc1ccccc1C(=O)Nc1nc2ccccc2[nH]1
  KCNQ2 inh = i
  KCNQ2 inh baseline = -1
CC(Oc1ccc(Cl)cc1)c1ccnn1S(=O)(=O)c1ccccc1 (configuration not stated)
  KCNQ2 inh = i
  KCNQ2 inh baseline = -1.1
CCCOc1ccc(C(=O)NNC(=O)CCNC(=O)c2ccccc2Cl)cc1OC
  KCNQ2 inh = i
  KCNQ2 inh baseline = -0.7
CCC(C)[C@H](NC(=O)NCCC1=CCCCC1)C(=O)OC (some centres not stated)
  KCNQ2 inh = i
  KCNQ2 inh baseline = 0.79

# Next part
structure	KCNQ2 inh	KCNQ2 inh baseline
CNC(=O)c1sc(-c2ccccc2)nc1C	i	-1.4
COC(=O)CNC(=O)C12CC3CC(C1)CC(c1ccc(C)cc1)(C3)C2	i	0.2
NS(=O)(=O)c1ccc(NC(=O)c2ccc(S(=O)(=O)N3CCOCC3)o2)cc1	i	-1.6
COc1ccc(N2C(=O)NC(NC(=O)C(C)(C)C)(C(F)(F)F)C2=O)cc1 (configuration not stated)	i	1
O=C(Cn1cnc([N+](=O)[O-])n1)NCCc1ccccc1	i	2.6
CC(C)c1c(C(=O)N/N=C/c2ccc(-c3ccccc3)cc2)nnn1-c1nonc1N	i	1.3
COc1ccc2oc(=O)c(C(=O)N3CCN(C(=O)c4ccccc4)CC3)cc2c1	i	0.15
O=C(CN1C(=O)c2cccnc2Oc2ccc(Cl)cc21)N1CCCC1	i	0.17
COc1ccc(CCNC(=O)C2CCC(=O)N(CC3CCCCC3)C2)cc1 (configuration not stated)	i	-1.2
COc1cc(S(=O)(=O)Nc2ccccc2)ccc1NC=O	i	-1.2
CCN(CC)S(=O)(=O)c1ccc(C(=O)NCC2CCCCC2)cc1	i	-0.89
CN(C)C(=O)c1coc2nc3ccccc3nc12	i	0.19
O=C(CNC(=O)c1cccs1)NCC(=O)OCc1ccccc1Cl	i	2.2
CC(CN1CCOCC1)OC(=O)Cc1ccc(Cl)cc1 (configuration not stated)	i	1.8
Cc1cc(C(=O)N/N=C/c2sc(N3CCOCC3)nc2-c2ccccc2)c(C)o1	i	-0.45
C=C1c2ccccc2NC(=O)N1c1ccc(C)cc1	i	1.2
CC(=O)Nc1ccc(S(=O)(=O)NC(C(=O)O)C(C)O)cc1 (configuration not stated)	i	1.2
CC1CCN(C2(O)C(=O)Nc3ccc([N+](=O)[O-])cc32)CC1 (configuration not stated)	i	-0.26
CN1CC(=O)N(CC(=O)Nc2ccc(N(C)C)cc2)c2ccccc2C1=O	i	0.16
CC(C)C(=O)OC1CCS(=O)(=O)c2sccc21 (configuration not stated)	i	0.43
